NPYLR7 ag: agonists of mosquito NPYLR7 receptor, primary screen, cell-based, Aedes aegypti, calcium fluorescence, mosquito biting behavior; AID 1259423, 2018; Aedes aegypti neuropeptide Y-like receptor 7 (NPYLR7); 270,000 compounds, 0.15% hits; activation, % at 10 µM; HEK293T NPYLR7/Galpha15, GCaMP6s calcium fluorescence; in the data active means activation above about 40%;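 further: 0% = vehicle and 100% = reference agonist at the receptor; some compounds past the cut are filed as inactive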
NPYLR7 ag max-min: further read-out of NPYLR7 ag, marked with its call; activation, %; measured here: Max-Min RFU normalised activation; some inactives read as strong as hits;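 span of the calcium signal over five minutes; 0% = vehicle and 100% = native peptide agonist; compound fluorescence can raise it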
Numbers without * were called inactive.

SMILES | NPYLR7 ag | NPYLR7 ag max-min
COc1cccc(-n2nnc3c(=O)n(CC(=O)N4CCCc5ccccc54)cnc32)c1 | 7 | 8
Cc1ccc2c(c1)N(S(=O)(=O)CCC1CCCO1)CC2 (configuration not stated) | -2 | -6
Cc1nc2ccccn2c1C(=O)NNS(=O)(=O)c1ccc(F)c(Cl)c1 | -6 | -7
CC1(C)CCC=[N+]1[O-] | -3 | -19
CN(c1ccccc1)S(=O)(=O)c1cc(C(=O)N2CCCC2c2nc3ccccc3[nH]2)ccc1Cl (configuration not stated) | 3 | 3
COc1ccc(-c2cc(C(F)(F)F)n3nc(C(=O)N4CCOCC4)cc3n2)cc1 | 4 | -1
COc1ccc(C(=O)Oc2c(S(=O)(=O)c3ccc(C)cc3)c(C)nn2C(C)(C)C)cc1 | 0 | 13
CN(C)C(=O)c1ccc(Nc2nccc3c2cc(-c2ccsc2)n3C)cc1 | -12 | -15
Cc1ccsc1[C@@H]1CCN(Cc2cc(-c3ccccc3)no2)C[C@H]1O | 8 | 2
CN(C1CCCCC1)S(=O)(=O)c1cc(Br)ccc1Br | -7 | -8
Cc1ccc(-c2cc(C(=O)O)n(-c3ccc([N+](=O)[O-])cc3)n2)cc1C | 7 | 15
Brc1ccc(CNCc2ccc3c(c2)OCO3)cc1 | 6 | 5
COc1ccc(OC2CCN(C(=O)CC(C)(O)C(F)(F)F)CC2)cc1 (configuration not stated) | 2 | 5
COCc1cc(C)nc(N/N=C\c2ccc(OCc3ccc(Cl)cc3)c(OC)c2)c1C#N | -2 | 5
Cc1nn(S(=O)(=O)c2cccs2)c(C)c1Sc1ccc(Cl)cc1 | 3 | 5
Cn1cc(C(=O)N2CCN(CC(=O)NCc3ccccc3)CC2)c2nn(-c3ccccc3)c(=O)c-2c1 | -3 | -8
CCCc1c(C)nn(-c2ccc(C(=O)NCCc3cccs3)cc2)c1C | -20 | -24
COc1cccc(-c2nnc3ccc(OCCNS(=O)(=O)c4cccc(C)c4)nn23)c1 | -3 | -1
C#CCOCC(O)CN(Cc1ccc(C)o1)CC1CCCO1 (configuration not stated) | 19 | 23
Cc1cccc(N2CCN(C(=O)c3ccc(Cn4c(=O)[nH]c5ccsc5c4=O)cc3)CC2C)c1 (configuration not stated) | 4 | 4
CCCCCCn1c(SCc2ccccc2)nc2c1c(=O)[nH]c(=O)n2C | 0 | -2
CCCc1ccc(-c2nccn2CC2CCCOC2)o1 (configuration not stated) | 6 | 6
CCOc1nc(-c2ccc(Cl)c(Cl)c2)n(-c2ccc(NC(=O)c3ccc(C(F)(F)F)cc3)cc2)n1 | 9 | 6
Cc1onc(-c2c(Cl)cccc2Cl)c1C(=O)Nc1ccc(-c2cccc(-c3ccc4c(c3)OCCO4)n2)cc1 | 11 | 9
CN1CCCN(CCOc2ccc(S(N)(=O)=O)cc2)c2cc(Cl)ccc21 | 2 | 0

Single entries from the entries so far.
Cc1nc2ccccn2c1C(=O)NNS(=O)(=O)c1ccc(F)c(Cl)c1 | NPYLR7 ag max-min = -7
Cc1ccc(-c2cc(C(=O)O)n(-c3ccc([N+](=O)[O-])cc3)n2)cc1C | NPYLR7 ag max-min = 15

Next section.
SMILES | NPYLR7 ag | NPYLR7 ag max-min
CCCCc1nc(Cl)c(CN2CCN(Cc3ncccc3C)CC2)[nH]1 | -2 | 8
CCCCCCC(=O)N(CC(=O)N(Cc1cccn1Cc1ccccc1Cl)CC(C)C)C(C)C | -11 | -3
CCCSc1nc(C)c(I)c(=O)[nH]1 | 7 | -1
O=C(c1cccc(Cl)c1)N1CCSC1c1ccc(Cl)cc1Cl (configuration not stated) | 6 | 16
Cc1cc(Br)ccc1C(=O)NCC1CCCC1O (configuration not stated) | -1 | -1
O=C(Cc1ccccc1F)NCc1ccc(N2CC=CC2)cc1 | 3 | 4
CCCN(CC(=O)Nc1c(-c2ccccc2)c(C)nn1-c1ccc(OC)cc1)C(=O)c1cccc(Br)c1 | -2 | 7
CCCCCCCc1ccc(-c2nc(Cc3ccccc3)no2)cc1 | -4 | -8
CCCn1ccnc1C1CC(=O)Nc2c1c(C(C)C)nn2-c1ccccc1 (configuration not stated) | 36 | 22
CN(Cc1ccco1)C(=O)CC1Sc2ccc(Cl)cc2NC1=O (configuration not stated) | -2 | -3
N#CC(N)c1ccc(F)cc1 (configuration not stated) | -6 | -5
COc1ccccc1Cn1c(C)c(C(=O)NCc2ccccc2C(F)(F)F)sc1=O | -5 | -6
CCOC(=O)NC(CC(C)C)Cn1c(=O)[nH]c2ccccc2c1=O (configuration not stated) | 0 | 0
C=C1c2ccccc2C(=O)N1CC(=O)N1CCOc2cc(F)ccc21 | -8 | 585
O=C(O)C1CN(S(=O)(=O)N2CCc3ccccc3C2)CCN1 (configuration not stated) | 0 | 0
CCC(C)C(NC(=O)COc1ccc(Cl)cc1)C(=O)Nc1nnc(-c2ccc(Cl)cc2)s1 (configuration not stated) | -4 | -7
CCOC(=O)C1=C(C)NC(=O)NC1c1ccc(N2CCOCC2)cc1 (configuration not stated) | -8 | -8
O=C(CN1CCN(c2ccccc2F)C1=O)Nc1ccc(F)c(C(F)(F)F)c1 | 0 | -3
O=C(c1cccc([N+](=O)[O-])c1)N1CCC2(CC1)SCCN2C(=O)C1CCCC1 | 7 | 10
COc1ccc(C)c2sc(=NC(=O)CN3C(=O)CCC3=O)n(C)c12 | 1 | 2
CCOC(=O)C1(O)CSc2nc3sc4c(c3c(=O)n21)CCCC4 (configuration not stated) | -5 | -9
CCOC(=O)CNC(=O)N(CCCOC)CC(=O)N(CCc1c[nH]c2ccccc12)Cc1ccc(C(F)(F)F)cc1 | -9 | 1
C[C@H](NC(=O)N1CCc2c([nH]c3ccccc23)C1c1ccc([N+](=O)[O-])c(Cl)c1)c1ccccc1 (some centres not stated) | -6 | -10
COc1ccc(C(=O)COC(=O)c2cc3cccc(OC)c3oc2=O)cc1 | 4 | 3
O=c1c2nnn(-c3cccc(F)c3)c2ncn1C/C=C/c1ccccc1 | -2 | -7
Continuation.
SMILES | NPYLR7 ag | NPYLR7 ag max-min
CC(C(=O)N(C)CCC#N)N1CCC(CN2CCCCC2=O)CC1 (configuration not stated) | 6 | 5
O=C(C(=Cc1cccs1)c1cccs1)N1CCCCCC1 | 8 | 7
COCCCN(CC(=O)N(CCc1c[nH]c2ccccc12)Cc1ccc(Cl)c(Cl)c1)C(=O)c1ccc(OC)cc1OC | 14 | 15
COCCN(CCC(=O)NCc1ccco1)c1nc(-c2cccs2)nc2ccccc12 | -8 | -6
CCSc1nc2ccccc2n1Cc1ccccc1F | 0 | -1
CCN1CCCC1CNC(=O)C1CC1c1ccc(F)cc1 (configuration not stated) | -5 | -4
CC(C)(C)NC(=O)N(Cc1cc(Cl)ccc1OS(C)(=O)=O)CC1CCCO1 (configuration not stated) | -1 | 4
COc1ccc(CN(C(=S)Nc2ccc(F)cc2)C2CC2)cc1OCc1nc(CO)cs1 | 4 | 16
O=C(Nc1cccc2cccnc12)c1sc2cc(Cl)ccc2c1Cl | -5 | -8
CC1(C)Cc2nc3[nH]c(=S)n(-c4ccccc4)c(=O)c3cc2CO1 | 8 | 8
C#CCSc1nc(C)c2cc(C)c(C)cc2n1 | -5 | -5
COc1ccc(NS(=O)(=O)c2cc(NC(C)=O)ccc2N2CCCCC2)cc1 | 8 | 5
COc1cccc(C(C)(O)c2nc(-c3cncnc3)cs2)c1 (configuration not stated) | 7 | 0
Cc1c(Br)c(C(F)(F)F)nn1CC(=O)Nc1ccc(OC(F)(F)F)cc1 | 0 | -6
Cc1cccc(-c2noc(N3CCOCC3)c2CN(Cc2ccc(F)cc2)C(=O)c2ccc(Cl)cc2)c1 | 8 | 12
Cc1cc(C(=O)Nc2ccc3c(c2)OC2(CCCC2)O3)c(C)o1 | -3 | -4
CCc1cc2c(SCC(=O)N3CCNC3=O)ncnc2s1 | -4 | -2
CN1CCCc2cc(C(CNC(=O)Nc3cccs3)N3CCCC3)ccc21 (configuration not stated) | -6 | -5
O=S(=O)(Nc1ccccc1)c1ccc2cccc3c2c1CC3 | 8 | 2
Cc1[nH]c2c(C(=O)NCC3(O)CCCNCC3)cccc2c1C (configuration not stated) | 5 | 0
Nc1cc([N+](=O)[O-])ccc1NS(=O)(=O)c1ccc(Cl)cc1 | 1 | -1
Cc1cncc(C(=O)N(CCN(C)C)Cc2cccs2)c1 | 7 | 5
Cc1ccc2nc(C)c(NC(=O)c3ccccc3C)c(=O)n2c1 | 5 | 1
COc1ccc(N2CC(C(=O)Nc3c4c(nn3-c3ccc(OC)cc3)CS(=O)(=O)C4)CC2=O)cc1 (configuration not stated) | -1 | -5
CC(=O)Cn1c(=O)c2c(nc3n(-c4ccccc4F)c(C)c(C)n23)n(C)c1=O | 0 | 4
More records:
SMILES | NPYLR7 ag | NPYLR7 ag max-min
CC(C)n1cc(C(=O)N2CCN(C(=O)CCC3CCCC3)CC2)c2nn(-c3ccccc3)c(=O)c-2c1 | -5 | -6
O=C(Nc1cccc(OCc2ccccn2)c1)C1CCc2cn[nH]c2C1 (configuration not stated) | 2 | 0
O=C(Nc1ccnn1Cc1ccc(Cl)cc1)C1CCN(S(=O)(=O)c2ccc(F)c(F)c2)CC1 | -3 | -4
CCN1CCCC1CNC(=O)CCC1CCN(C2CCN(C(C)=O)CC2)CC1 (configuration not stated) | 1 | -6
CSc1ccc(C2c3[nH]c4ccccc4c3CCN2Cc2nccs2)cc1 (configuration not stated) | 17 | 17
CCCN(CC(C)(C)O)c1ncnc2ccc(Br)cc12 | -14 | -17
CC(OC(=O)Cc1ccc(F)c(F)c1)c1ccccn1 (configuration not stated) | -3 | -6
CCCCc1ncc(CN2CCC3(CC2)C(=O)NCCN3C)[nH]1 | 6 | 4
CC(C)NC1CCCN(c2nc(CN3CCOCC3)nc3sc4c(c23)CCCC4)C1 (configuration not stated) | 2 | 0
COc1ccc(CN(Cc2ccco2)C(=O)c2c(OC)cccc2OC)cc1OS(C)(=O)=O | -7 | -1
CC(=O)Nc1ccc(Cl)c(-c2nc3cc(Cl)ccc3o2)c1 | 30 | 27
O=C(Oc1coc(CSc2ncccn2)cc1=O)c1ccc(C(F)(F)F)cc1 | -12 | -4
Cc1cc(C)c2sc(N3CCN(C(=O)c4cc(C)no4)CC3)nc2c1 | 9 | 12
COc1cc(NS(C)(=O)=O)ccc1Nc1c2ccccc2nc2ccccc12 | 4 | 3
COc1ccc(C(N)c2csc(Nc3ccc(C(=O)NCCCO)cn3)n2)cc1 (configuration not stated) | -4 | -10
CCOC(=O)C1c2c(OC)ccc3c2C(=CC(C)(C)CO3)CN1C1COC1 (configuration not stated) | 0 | 4
Cc1ccsc1C(=O)N(CC1CCN(Cc2ccccc2F)CC1)CC1CCCO1 (configuration not stated) | -3 | -5
COc1ccc(-c2cc(NC(=O)c3ccc(F)c(Cl)c3)n(-c3ccccc3)n2)cc1 | 4 | 3
Cc1nc2c(=O)n(CC(=O)Nc3ccc(Cl)cc3)nc(-c3ccc(F)cc3)c2s1 | 3 | 2
COc1ccc(CC(C)(N)C(=O)O)cc1OC (configuration not stated) | 9 | 1
C=C1C[C@]23C[C@@]1(O)CC[C@H]2[C@@]12C=C[C@H](O)[C@@](C)(C(=O)O1)[C@H]2[C@@H]3C(=O)O | -16 | -24
COc1ccc(-n2nc(-c3ccc(OC)cc3OC)cc2C(=O)N2CCN(Cc3ccccc3)CC2)cc1 | -4 | -1
O=C(CCl)NC(=O)NCc1ccco1 | -7 | -10
NC1CCC(Nc2nccc3[nH]c(-c4cccc(OC(F)(F)F)c4)nc23)CC1 (configuration not stated) | -6 | -8
NCc1ccc(N2CCN(c3ncccn3)CC2)c(F)c1 | 5 | 0
Next entries follow:
SMILES | NPYLR7 ag | NPYLR7 ag max-min
Nc1ccnc(N2CCc3onc(-c4ccccc4F)c3C2)n1 | -3 | -11
CC(=O)Oc1c(C)ncc2c1COC(C)(C)OC2 | 10 | 2
c1ccc2c(c1)OCC(Cn1ccnc1-c1cnc[nH]1)O2 (configuration not stated) | 5 | 4
c1ccn2c(CNC3CC4CC3C3CCCC43)nnc2c1 (configuration not stated) | -2 | -1
NC(=O)c1ccsc1NC(=O)CSc1ncnc2sccc12 | 8 | 8
C=CCC(=O)N1CCCC(CCc2ccccc2)C1 (configuration not stated) | 2 | 0
CCC(C)c1ccccc1OS(=O)(=O)c1ccc2c(c1)NC(=O)CO2 (configuration not stated) | -2 | -1
COc1cc(-c2nc3nc4ccccc4nc3n2CC2CCCO2)cc(OC)c1OC (configuration not stated) | -1 | -13

A section from the list above, for reference:
SMILES | NPYLR7 ag | NPYLR7 ag max-min
COc1ccc(CC(C)(N)C(=O)O)cc1OC (configuration not stated) | 9 | 1
C=C1C[C@]23C[C@@]1(O)CC[C@H]2[C@@]12C=C[C@H](O)[C@@](C)(C(=O)O1)[C@H]2[C@@H]3C(=O)O | -16 | -24
COc1ccc(-n2nc(-c3ccc(OC)cc3OC)cc2C(=O)N2CCN(Cc3ccccc3)CC2)cc1 | -4 | -1
O=C(CCl)NC(=O)NCc1ccco1 | -7 | -10
NC1CCC(Nc2nccc3[nH]c(-c4cccc(OC(F)(F)F)c4)nc23)CC1 (configuration not stated) | -6 | -8
NCc1ccc(N2CCN(c3ncccn3)CC2)c(F)c1 | 5 | 0
Nc1ccnc(N2CCc3onc(-c4ccccc4F)c3C2)n1 | -3 | -11
CC(=O)Oc1c(C)ncc2c1COC(C)(C)OC2 | 10 | 2
c1ccc2c(c1)OCC(Cn1ccnc1-c1cnc[nH]1)O2 (configuration not stated) | 5 | 4
c1ccn2c(CNC3CC4CC3C3CCCC43)nnc2c1 (configuration not stated) | -2 | -1
NC(=O)c1ccsc1NC(=O)CSc1ncnc2sccc12 | 8 | 8
C=CCC(=O)N1CCCC(CCc2ccccc2)C1 (configuration not stated) | 2 | 0
CCC(C)c1ccccc1OS(=O)(=O)c1ccc2c(c1)NC(=O)CO2 (configuration not stated) | -2 | -1
COc1cc(-c2nc3nc4ccccc4nc3n2CC2CCCO2)cc(OC)c1OC (configuration not stated) | -1 | -13

Not all compounds are listed, so the mix of outcomes need not match the whole.
